Compound activity: PubChem BioAssay, National Center for Advancing Translational Sciences (NCATS)
SARS PLP yeast: qHTS of Yeast-based Assay for SARS-CoV PLP; S. cerevisiae expressing SARS-CoV PLpro, growth rescue; control for the full effect not named in the record; Potency, µM (series often up to 32.9 µM), inactives show top-dose activity, positive = growth rescue; actives 0.19% (n = 330,000); active means well fitted rising curve with a large enough effect; inconclusive means small, poorly fitted or top-dose-only effect; inactive means no such curve, though single readings can be large or run the other way; note: 0% is about no effect; nearly all actives have a fitted effect of over 55% in size; growth read by luminescence after 48 h
RE007 growth inh: qHTS Assay for Inhibitors of the HIV-1 protein Vpr; S. pombe RE007 Vpr strain, BacTiter-Glo ATP luminescence, 24 h; control for the full effect not named in the record; Potency, µM (top dose mostly 92.2 µM), inactives show at the top dose activity change, negative = less growth; actives 0.21% (n = 360,000); AID 651644, 2012; active = well fitted falling curve with a large enough effect; inconclusive = small, poorly fitted or top-dose-only effect; inactive = no such curve, though single readings can be large or run the other way;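 note: % is set by controls: 0 for no effect and ±100 for the full control effect; nearly all actives have a fitted effect of over 50% in size; the assay follows cell death caused by Vpr and the record does not say whether a fall means rescue or toxicity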
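Fission yeast strain RE007, carrying one chromosomally integrated HIV-1 vpr copy, was seeded at OD 0.01 in PMG+AL medium with 23 nL pinned compound. After 24 h at 30 °C and 99% humidity, viability was read by BacTiter-Glo luminescence.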
Cruzain inh Det: qHTS Assay for Promiscuous and Specific Inhibitors of Cruzain (with detergent); Cruzipain (Trypanosoma cruzi), P25779; purified cruzain, Z-FR-AMC fluorescence, 0.01% Triton; Potency, µM, inactives show max response, negative = inhibition, actives largely listed as inhibitors; actives 0.43% (n = 200,000); AID 1478, 2009;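 note: plate controls were neutral wells for no effect and buffer without enzyme for full effect; nearly all actives have a fitted effect of over 40% in size; top concentration of the series not given in the record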
Target sequence (P25779 123-467 limits assumed): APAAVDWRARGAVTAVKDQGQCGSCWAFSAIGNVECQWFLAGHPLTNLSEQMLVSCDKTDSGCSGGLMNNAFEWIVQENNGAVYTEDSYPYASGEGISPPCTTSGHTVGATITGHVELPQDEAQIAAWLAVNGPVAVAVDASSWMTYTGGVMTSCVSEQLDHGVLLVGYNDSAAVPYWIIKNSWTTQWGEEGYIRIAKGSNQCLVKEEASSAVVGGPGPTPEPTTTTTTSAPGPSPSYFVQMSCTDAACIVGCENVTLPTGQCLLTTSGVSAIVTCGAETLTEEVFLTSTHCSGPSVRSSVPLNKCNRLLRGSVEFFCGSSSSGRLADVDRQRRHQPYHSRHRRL
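Detergent-containing run (0.01% Triton X-100) in acetate buffer pH 5.5 with 5 mM DTT: enzyme at 1.5 nM final, 15 min compound preincubation at room temperature, then 2 uM Z-FR-AMC substrate. Activity taken as 60 s fluorescence increase at 360/450 nm.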
Marburg entry inh: qHTS for inhibitors of binding or entry into cells for Marburg Virus. Marburg virus pseudotyped entry inhibition, cell reporter; control for the full effect not named in the record; about a third of the inactives were read at about 46 µM. Potency, µM (series often up to 37.8 µM), inactives show at the top dose activity change, negative = inhibition, actives largely listed as inhibitors. actives 1.8% (n = 300,000); active = well fitted inhibition curve with a large enough effect; inconclusive = small, poorly fitted or top-dose-only effect, or effect the other way; inactive = flat fitted curve, though single readings scatter; tested in HEK293 cells; about a fifth of its hits are not listed in these tables; note: % is set by controls: 0 for no effect and ±100 for the full control effect; luciferase read-out
Lassa entry inh: qHTS for Inhibitors of binding or entry into cells for Lassa Virus; actives 1.2% (n = 300,000); Potency, µM (titrated, usually from 37.9 µM), inactives show at the top dose activity change, negative = inhibition, most hits filed as inhibitors; Lassa virus pseudotype entry inhibition, cell reporter; control for the full effect not named in the record; active means well fitted inhibition curve with a large enough effect; inconclusive means small, poorly fitted or top-dose-only effect, or effect the other way; inactive means flat fitted curve, though single readings scatter; tested in HEK293 cells; note: % is set by controls: 0 for no effect and ±100 for the full control effect; nearly all actives have a fitted effect of over 50% in size; luciferase read-out
2A StopGo: High Throughput Screening for Foot and Mouth Disease Virus Antivirals; human cells with a luciferase reporter of 2A StopGo recoding; control for the full effect not named in the record; actives 1.2% (n = 410,000); Potency, µM (highest dose often 57.9 µM), without a hit: top-dose signal change, negative = less light; AID 1159524, 2015; active = well fitted falling curve with a large enough effect; inconclusive = small, poorly fitted or top-dose-only effect; inactive = no such curve, though single readings can be large or run the other way; tested in HEK293T cells; note: % is set by controls: 0 for no effect and ±100 for the full control effect; nearly all actives have a fitted effect of over 45% in size; luciferase light after 4 h
Cruzain noTriton: qHTS Assay for Promiscuous and Specific Inhibitors of Cruzain (without detergent) | actives 2.3% (n = 200,000) | Potency, µM, without a hit: max response, negative = inhibition, most hits filed as inhibitors | purified cruzain, Z-FR-AMC fluorescence, no detergent;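 note: plate controls were enzyme without inhibitor for no effect and buffer without enzyme for full effect; nearly all actives have a fitted effect of over 40% in size; top concentration of the series not given in the record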
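Detergent-free condition (0.00005% Triton X-100) in acetate buffer pH 5.5 with DTT. 1.5 nM enzyme and compound were pre-mixed 15 min, then 2 uM Z-FR-AMC substrate added; reaction progress from fluorescence change between first and third reads (60 s).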
NS1 inh: qHTS Assay for Inhibitors of Influenza NS1 Protein Function; S. cerevisiae slowed by influenza A NS1, growth recovery by OD600; Potency, µM (series often up to 46.1 µM), inactives show at the highest dose activity, positive = more growth; actives 0.4% (n = 270,000); active means well fitted rising curve with a large enough effect; inconclusive means small, poorly fitted or top-dose-only effect; inactive means no such curve, though single readings can be large or run the other way; note: nearly all actives have a fitted effect of over 50% in size
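In this qHTS, NS1 from influenza A is expressed in budding yeast, where it slows growth. Cells are switched from glucose to 2% galactose medium (pH 6.0, -URA), treated with compound, and growth recovery is read at OD600.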
* hit, by the source's call; ? = inconclusive; · = not tested or not shown; & = joins results of further samples; [ ] = dose if it differs, or a comment. Unless noted, calls come from the whole dose curve; as a rule, active = well fitted curve in the direction sought with a large enough effect; inconclusive = small, poorly fitted or top-dose-only effect, or another doubt; inactive = no such curve, though single readings can be large; an effect the other way counts as inactive or inconclusive. Potency is the fitted concentration of half-maximal effect.

SMILES	SARS PLP yeast	RE007 growth inh	Cruzain inh Det	Marburg entry inh	Lassa entry inh	2A StopGo	Cruzain noTriton	NS1 inh
Cc1ccc2c(=O)c(C(=O)c3ccc(F)cc3)cn(CC(=O)NCCc3ccccc3)c2n1	·	·	-0.9%	·	30%[46.1 µM]	55%[activator]	8%	·
COc1cc(S(=O)(=O)N2CCOCC2)ccc1NC(=O)COC(=O)COc1ccccc1	0%	-14%	·	0%[46.1 µM]	?	-13%	·	·
COc1cccc(N2CC(NC(=O)COc3ccccc3F)CC2=O)c1 (stereo not given)	·	·	-2.5%	·	0%[46.1 µM]	-15%	-5%	·
COc1cc(-c2nc(CN3CCCN(C(=O)c4ccco4)CC3)c(C)o2)ccc1F	1%	-25%	·	-8%[46.1 µM]	-11%	?	·	8%
COc1ccc(OC)c(C2/C(=C(\O)c3ccc4c(c3)OCCO4)C(=O)C(=O)N2CC2CCCO2)c1 (stereo not given)	1%	19%	·	0%	-7%	15%	·	-1%
CC1=C(C(=O)OCC2CCCO2)C(c2ccc(Cl)cc2)NC(=O)N1 (stereo not given)	1%	-18%	·	?	·	0%	·	·
NS(=O)(=O)c1cccc2c1c([N+](=O)[O-])cc1nc(O)c(O)nc12	·	-3%[18.4 µM]	-5.2%&-5.6%	?	-6%	-5%&-19%	4%&1%	-2%
COC(=O)c1c(-c2ccccc2)csc1NC(=O)CSc1ncnc2sc(C)c(C)c12	-8%	-3%	-0.7%	?	-16%	0%	6.3µM*	15%
CCC(C)OC(=O)C1=C(C)NC2=C(C(=O)C(C(=O)OC)C(C)C2)C1c1ccc(N(C)C)cc1 (stereo not given)	-16%	-1%	-2.6%	7%&7%	13%	36%[activator]	?	-33%
COc1cccc(-c2cc(C(=O)Nc3c(C)nn(Cc4ccccc4C)c3C)no2)c1	-23%	1%	-8.0%	-8%&-27%	-22%	?	5%	-55%
CCc1cc2c(s1)N(CC(=O)OC)C(=O)CN=C2c1ccccc1OC	0%	-2%	·	-26%[46.1 µM]	-9%[46.1 µM]	0%	·	-13%
O=c1c2c3c(sc2n(Cc2cc(=O)n4ccccc4n2)c(=O)n1-c1ccc(Cl)cc1)CCC3	·	·	-2.6%	-1%[46.1 µM]	-1%[46.1 µM]	-9%	0%	·

Only Lassa entry inh and SARS PLP yeast, for some of the entries so far:
SMILES	Lassa entry inh	SARS PLP yeast
COc1cc(S(=O)(=O)N2CCOCC2)ccc1NC(=O)COC(=O)COc1ccccc1	?	0%
O=c1c2c3c(sc2n(Cc2cc(=O)n4ccccc4n2)c(=O)n1-c1ccc(Cl)cc1)CCC3	-1%[46.1 µM]	·

Further structures
SMILES	SARS PLP yeast	RE007 growth inh	Cruzain inh Det	Marburg entry inh	Lassa entry inh	2A StopGo	Cruzain noTriton	NS1 inh
COc1ccc(NC(=O)CSc2ccc3c(c2)OCCO3)cc1OC	18%	5%	0.9%	1%	-15%	-17%	-2%	3%
COc1ccccc1OCC(=O)NCC(c1ccc(Cl)cc1)N1CCOCC1 (stereo not given)	·	·	-3.1%	?	1%[46.1 µM]	-17%	1%	·
Cc1onc(-c2ccccc2Cl)c1C(=O)Oc1ccc(Br)cc1	·	·	-5.2%	·	?	-16%	-1%	·
Cn1c(=O)n(Cc2ccccc2)c(=O)c2c1nc1n2CCCN1CCc1ccccc1	-14%	-12%	-5.2%	?	-5%	?	?	25%
Cc1ccc(-n2c(C)cc(/C=N/NC(=O)c3ccncc3)c2C)c(C)c1	-8%	11%	-5.5%	-1%	1%	-7%	0%	10%
O=C(CSc1ncnc2sccc12)Nc1ccccc1	-1%	-9%	·	1%[46.1 µM]	-4%[46.1 µM]	-3%	·	·
CCOC(=O)c1c(NC(=O)C2C3CCC(O3)C2C(=O)O)sc(C)c1-c1ccc(C)cc1 (stereo not given)	?	6%	-3.5%	-2%	-19%	0%	19%	30%
COc1ccc(N2CCN(c3c(S(=O)(=O)c4ccccc4)cnc4ccc(OC)cc34)CC2)cc1	-72%	1%	-4.3%	8.9µM*	?	0%	?	?
COc1ccc(NC(=S)NC(=O)C2CCC2)cc1	9%	-18%	·	·	·	41%[activator]	·	-21%
CC1(C)CC=C(NNC(=O)c2cccnc2)C(=O)C1	-4%	11%	·	·	·	-2%	·	-1%
CC(NC(=O)C1CCC(C(=O)NC(C)c2ccccc2)CC1)c1ccccc1 (stereo not given)	13%	14%	·	·	·	-17%	·	-3%
CN1CCN(NC(=O)c2cn(-c3ccccc3)nc2-c2ccc(OC(F)F)cc2)CC1	-1%	7%	·	7.1µM*	7%	-5%	·	-5%
COc1ccc(-c2cc([C@H]3[C@H]4C=CC[C@@H](C)[C@@H]4C(=O)N3Cc3ccccc3)ccc2F)cc1OC	0%	-6%	·	·	·	14%	·	?
O=C(COc1ccccc1)N(CCc1ccccc1)c1nc(-c2ccc(F)cc2)cs1	1%	11%	2.4%	?	-28%	-16%	-26%	5%
COC(=O)c1c(NC(=O)CC2SC(N)=NC2=O)sc2c1CCC(C(C)(C)C)C2 (stereo not given)	8%	1%	-9.6%	?	?	?	4%	?
CC1CC(C)CN(C(=O)CN2C(=O)NC3(CCCCCC3)C2=O)C1 (stereo not given)	1%	-4%	·	-11%[46.1 µM]	-1%[46.1 µM]	8%	·	·
C=CCn1c(SC/C=C/c2ccccc2)nnc1-c1sc(N)nc1C	1%	4%	4.5%	1%[46.1 µM]	-3%	-13%	0%	-11%
CCN(CC)C(=O)c1sc2nc(-c3ccncc3)[nH]c(=O)c2c1C	0%	-5%	-0.4%	22%	15%	0%	-5%	-7%
CSCCC(NS(=O)(=O)c1ccc(C)cc1)C(=O)N1CCN(C(C)=O)CC1 (stereo not given)	?	7%	·	18%	23%	-22%	·	·
Cc1ccc(OCc2cc(C(=O)N3CCCCCCC3)no2)cc1C	-7%	5%	·	·	·	58%[activator]	·	0%
CCC(C(=O)NCCCc1ccccc1)n1nc(C)c2c(C)n(-c3ccccc3)nc2c1=O (stereo not given)	-2%	12%	·	?	-5%[46.1 µM]	-28%	·	-7%
CC(=O)Oc1cccc(C(=O)Nc2cccc(C(=O)Nc3ccccc3C(=O)O)c2)c1	1%	2%	·	3%	12%	-7%	·	6%
Cc1ccc(S(=O)(=O)/N=C(\N)Nc2nc(C)c3cc(C)ccc3n2)cc1	-5%	-9%	-11%	-9%	?	9%	7%	0%
CCOc1cc(/C=C2/N=C(c3ccc(C(C)(C)C)cc3)OC2=O)cc(Cl)c1OS(C)(=O)=O	-4%	13%	-7.3%	1%	5%	7%	2%	23%
COc1ccc(C(=O)CSc2nc(C)cc(C)n2)cc1[N+](=O)[O-]	1%	164%	·	12%[46.1 µM]	?	-18%	·	·
O=C(O)c1ccc2c(c1)C(=O)N(NC(=O)c1ccccc1)C2=O	-3%	-3%	5.7%	2%	0%	·	0%	6%
Cc1cc(N2CCCCC2)nc2ccc(NC(=O)CCC(=O)NCCC(C)C)cc12	4%	-4%	-5.3%	?	1%	-1%	14%	2%
CC1=C(C(=O)Nc2ccccc2C(F)(F)F)C(c2ccc(C)s2)NC(=S)N1 (stereo not given)	0%	8%	·	?	-21%[46.1 µM]	-14%	·	13%
O=C(Nc1ccc(S(=O)(=O)Nc2ncccn2)cc1)c1cncc(Br)c1	2%	7%	0.8%	?	?	-8%	-11%	2%
Cc1cc(-c2nc3cc(F)ccc3s2)ccc1N	·	7%	·	7.1µM*	2.2µM*	-61%	·	·
C[C@@H]1O[C@@H](O[C@H]2C[C@@H](O)[C@]3(CO)[C@H]4[C@H](O)C[C@]5(C)[C@@H](C6COC(=O)C6)CC[C@]5(O)[C@@H]4CC[C@]3(O)C2)[C@H](O)[C@H](O)[C@H]1O (stereo not given in full)	?	1%[18.4 µM]	0.9%	?	1.6µM*	?	-11%	6%
COc1ccc2oc(=O)c(-c3cn4ccc(C)cc4n3)cc2c1	-1%	11%	·	0%[46.1 µM]	18%	28%	·	0%
c1coc(C2Nc3ccccc3-c3nc4ccccc4n32)c1 (stereo not given)	-9%	7%	-24%	?	?	10%	9%	-74%
CN(CC(=O)NCCCN1CCOCC1)S(=O)(=O)c1ccc(F)cc1	1%	-28%	·	-8%[46.1 µM]	13%	-12%	·	-5%
O=[N+]([O-])c1cc(S(=O)(=O)c2ccc(N3CCCCC3)c([N+](=O)[O-])c2)ccc1N1CCCCC1	2%	-19%	-7.9%	?	-12%	-15%	7.9µM*	11%
COc1ccc(C2CC(=O)c3cc(-c4nc(-c5cccc([N+](=O)[O-])c5)cs4)c(=O)n(-c4ccccc4)c3C2)cc1 (stereo not given)	·	·	-0.4%	0%[46.1 µM]	15%[46.1 µM]	-6%	-4%	·
CCCC(=O)N1CCN(c2ccc(NC(=O)C(C)(C)C)cc2)CC1	-12%	14%	3.4%	5%	-8%	-6%	6%	-6%
Cc1cnc(NC(=O)CC2OC(=O)c3ccccc32)s1 (stereo not given)	2%	-9%	·	-9%[46.1 µM]	9%	-12%	·	·
CCOc1ccc(OCC)c(NC(=O)CC2Oc3ccc(C)cc3NC2=O)c1 (stereo not given)	3%	-4%	0.5%	-1%	·	-14%	?	5%
OC(CNC1CCCC1)COc1c(F)cc(Br)cc1F (stereo not given)	0%	-1%	1.6%	-11%	-2%	8%	8%	7%
Cc1cc(C)n(-c2ccc(-n3ccnc3)nn2)n1	4%	-1%	3.4%	-1%	-12%	·	-2%	-6%
CN1C(=O)C(Cc2cccs2)C(=O)N(C)C1=O	-3%	-8%	0.3%	-3%	-7%	·	-3%	5%
Cc1cccc(NC(=O)Nc2c(C)[nH]c(=O)[nH]c2=O)c1C	-1%	0%	·	-5%	·	-9%	·	1%
COc1ccc(Nc2nc(N)nc(CSc3nc4ccccc4s3)n2)cc1	·	·	-11%	-9%[46.1 µM]	?	?	?	·
